Screening data deposited in PubChem BioAssay by several laboratories.
Arbovirus inh: arbovirus infection inhibition; AID 1251; hit rate 0.37% among 200,000; arbovirus infection cell-based antiviral screen; inhibition, % at 10 µM;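 active = inhibition from about 30%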;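 note: bluetongue infection of BSR cells; cell survival read as ATP light after 72 h; 0% = infected wells without compound and 100% = uninfected wells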
YopH PTP inh: inhibitors of Yersinia enterocolitica YopH tyrosine phosphatase. AID 898. hit rate 0.16% among 140,000. fluorescence Ex485/Em525. inhibition, %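 (about 10 µM by stock and volumes)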;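 active = inhibition of 50% or more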;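 note: controls were vehicle for no effect and minimum signal wells for full effect; inactives centre near -20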
Mtb betalactam: beta-lactam sensitization of Mtb H37Rv. M. tuberculosis H37Rv growth with meropenem, percent inhibition; hits of this screen are not shown here. inhibition, % at 25 µM. hit rate 0.27% among 330,000;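 active = about 74% or more and at least 40 points above the plate without the antibiotic, then above 30% in a dose series; inconclusive = first-round hits that could not be retested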;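 note: growth measured after seven days incubation then overnight dye step; 0% = bacteria only wells and 100% = bacteria with antibiotic; twin plates without the antibiotic show which effects depend on it; some results filed as inactive read as strong as hits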
Mtb H37Rv: M. tuberculosis H37Rv growth inhibitors, H37Rv strain (AID 1626) | hit rate 0.95% among 220,000 | M. tuberculosis H37Rv growth inhibition; higher % means a stronger effect | inhibition, % at 10 µM; hits with a dose series show IC50 in µM;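 active = confirmed in a dose series; inconclusive = inhibition above 80% but not taken into the dose series; inactive = below 80% or under 30% at every dose of the series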;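 note: bacteria incubated seven days before Alamar blue readout; 0% = bacteria only wells and 100% = bacteria with antibiotic wells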
RecA splice inh: blocks M. tuberculosis RecA intein splicing; P9WHJ3; cell-free RecA intein splicing, fluorescence; inhibition, %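 (about 9 µM by stock and volumes)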; hit rate 0.75% among 290,000; in the data active = inhibition above about 30%; inconclusive = no clear call, values can overlap the other calls;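 note: 0% = vehicle wells and 100% = reference inhibitor control wells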
Target sequence (P9WHJ3 whole entry, looked up, canonical isoform): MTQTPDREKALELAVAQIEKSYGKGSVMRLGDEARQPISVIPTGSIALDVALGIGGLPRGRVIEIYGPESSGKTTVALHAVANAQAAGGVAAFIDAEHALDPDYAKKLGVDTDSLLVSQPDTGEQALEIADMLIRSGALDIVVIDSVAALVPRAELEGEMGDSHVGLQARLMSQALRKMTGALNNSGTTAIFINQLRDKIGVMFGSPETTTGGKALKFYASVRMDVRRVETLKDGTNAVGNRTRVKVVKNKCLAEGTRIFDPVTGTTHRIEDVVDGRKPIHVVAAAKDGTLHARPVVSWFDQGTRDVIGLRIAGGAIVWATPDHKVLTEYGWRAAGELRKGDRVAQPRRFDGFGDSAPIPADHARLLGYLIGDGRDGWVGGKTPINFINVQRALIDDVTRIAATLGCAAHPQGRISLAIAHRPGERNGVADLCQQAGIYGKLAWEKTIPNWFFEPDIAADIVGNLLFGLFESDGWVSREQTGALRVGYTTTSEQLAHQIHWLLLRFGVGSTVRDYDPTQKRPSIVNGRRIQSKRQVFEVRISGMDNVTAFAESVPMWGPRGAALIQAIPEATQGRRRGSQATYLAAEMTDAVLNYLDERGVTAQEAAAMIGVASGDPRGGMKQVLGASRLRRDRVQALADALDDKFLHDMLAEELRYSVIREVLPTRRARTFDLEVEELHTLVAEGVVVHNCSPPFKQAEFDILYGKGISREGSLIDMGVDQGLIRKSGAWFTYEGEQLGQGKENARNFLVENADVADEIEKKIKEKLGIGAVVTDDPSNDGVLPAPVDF
Arbovirus inh repeat: second read-out of Arbovirus inh, no call of its own (marks repeat the call); inhibition, %; measured here: 10K subset replicate screen; many hits read low in the repeat;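 first of two repeat runs on a subset; 0% = infected and 100% = uninfected wells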
* = called active by the depositor; ? = inconclusive; . = no result given. These rows are one share of the data; rates above refer to the full screens.

SMILES	Arbovirus inh	YopH PTP inh	Mtb betalactam	Mtb H37Rv	RecA splice inh	others
CCOC(=O)CSc1nc2c(c(-c3ccc(C)o3)c1C#N)CCCC2	7	14	99	2.4µM*	1.9
Cc1ccc(C(=O)N[C@H](C(=O)OCc2cc(=O)oc3cc(C)ccc23)C(C)C)cc1	-1	-41	-1	-3%	2.9
CCOCC(=O)Nc1cc(C)on1	5	.	0	4%	0.8
Cc1ccc(C)c(N2CCN(C(=O)CCC(=O)Nc3nnc(C(F)(F)F)s3)CC2)c1	.	.	11	.	-2.0
Cc1cc(C)c(S(=O)(=O)c2ccccc2)c(OC(=O)c2c(F)cccc2Cl)n1	9	-15	-5	-10%	-0.9
COc1ccccc1-c1nnc(SCC(=O)O)n1-c1ccccc1	9	.	-5	-5%	-0.9
CSCC(=O)NC1CCCN(C2Cc3ccccc3C2)C1 (stereo not drawn)	.	.	-7	.	9.7
COc1ccc(NC(=O)CCc2nnc3ccc(N4CCC5(CC4)OCCO5)nn23)cc1	.	.	-3	.	1.1
CN(C)c1ccc(-c2nn3c(-c4ccc(Cl)cc4Cl)nnc3s2)cc1	-17	-20	.	.	.
Cc1cc(C(=O)NNC(=S)NCC(C)C)no1	4	0	9	1%	-1.4
Cc1cc(C(=O)Nc2cccc(-c3ccc(N4CCOCC4)nn3)c2)ccc1[N+](=O)[O-]	.	.	-3	.	2.8
CC(=O)Nc1c(Cl)cc([N+](=O)[O-])c2ccccc12	7	-9	0	-3%	7.8
CN(C)c1ccnc(Nc2ccc(O)cc2)c1C#N	8	.	0	-2%	-1.9
CN1CC(C(=O)c2ccc(Cl)cc2)C(c2ccc(N(C)C)cc2)C1 (stereo not drawn)	-6	.	4	1%	0.1
O=C(CCCOc1ccccc1)NC1CCCc2ccccc21 (stereo not drawn)	-1	-14	4	-2%	2.6
Cc1ccccc1NC(=O)Cc1nc(COC(=O)c2ccc(Cl)c(S(N)(=O)=O)c2)cs1	.	.	-6	.	-0.1
CCn1c(N)c(C(=O)NCc2ccco2)sc1=S	3	-32	-7	-12%	-4.2
COc1ccccc1C(=O)NCCCCNC(=O)c1ccccc1OC	.	.	-4	.	-0.2
CCC(=O)c1ccc(OCCN2CCOCC2)cc1	0	-19	-8	-17%	-0.1
CC1CN(c2nc(N(C)c3ccccc3)nc(N)c2[N+](=O)[O-])CC(C)O1 (stereo not drawn)	.	.	-1	.	3.9
Cc1cccc(N2CCCn3c2nc2c3c(=O)n(CCN3CCOCC3)c(=O)n2C)c1	0	-10	13	5%	-0.4
Cc1cccc(CNC(=O)c2ccc(NC(=O)C3=CSCCO3)cc2)c1	.	.	-1	.	-0.3
CCCNS(=O)(=O)c1cccc2cccnc12	0	-44	3	20%	.	Arbovirus inh repeat=-2
CCOC(=O)c1sc(=S)n(C)c1C	-10	9	-9	-6%	4.0
COc1ccc(NC(=O)O/N=C/c2ccncc2)cc1	-9	.	68	67%	-1.4
O=[N+]([O-])c1cc2c(c(CSc3nnc(Nc4ccccc4)s3)c1)OCOC2	-7	1	-20	-3%	4.6
COCc1[nH][nH]c(=O)c1C=NCC(=O)OC	4	.	-1	0%	1.1
O=C(CN1CCN(Cc2ccccc2)CC1)NC(=O)NC1CCCCC1	7	-33	5	7%	0.6
Nc1ccc(Oc2cccc(Oc3ccc(N)cc3)c2)cc1	-21	.	-4	1%	1.8
CCC(C)N1CC(O)=C(c2nc3ccccc3[nH]2)C1=N (stereo not drawn)	-12	-34	1	2%	0.1
O=C(COC(=O)CCC1CCCC1)Nc1ccc(Cl)cc1F	-2	-22	3	0%	-1.2
COc1ccc(/C=N/NC(=O)c2cc(-c3cccnc3)nc3ccccc23)c(OC)c1	-5	.	0	-2%	-4.9
O=S(=O)(Nc1ccccc1Cl)c1cccc2nsnc12	.	.	2	.	-1.6
NC(=O)/C(=C/c1ccco1)NC(=O)/C=C/c1ccccc1	5	-16	1	-6%	0.6
Cn1cc(SCC(=O)NC2CCCC2)c2ccccc21	.	.	11	.	-4.2
O=C(C1CCN(S(=O)(=O)c2cnc[nH]2)CC1)N1CCc2ccccc2C1	-2	2	-8	-15%	2.9
COc1ccc(Cl)cc1NC(=O)CCN1C(=O)C2CC=CCC2C1=O (stereo not drawn)	.	.	-12	.	-0.1
COc1cc(NCCC(=O)c2cccs2)c(OC)cc1Cl	-3	.	98	?	3.1
CCOc1ccc(-c2noc(-c3cccnc3)n2)cc1OC	3	-38	25	.	2.1
CC(C)C(=O)Nc1nnc(SCC(=O)NC2CC2)s1	5	-27	5	-12%	.
O=C(CCc1ccccc1)Nc1cccnc1	.	.	6	.	-3.7
COc1ccc(-c2cc(C(=O)N(C)Cc3ccccc3)c3ccccc3n2)cc1	.	.	61	.	12
CCOC(=O)/C(C#N)=C(\O)c1ccc(NC(=O)c2ccc([N+](=O)[O-])cc2)cc1	.	.	99	5%	-1.1
Cc1cccc(NS(=O)(=O)c2cccc(C(=O)NCCCN3CCCC3=O)c2)c1	.	.	-8	.	-0.8
CC(=O)N1CCC(N(CCN2CCOCC2)C(=S)Nc2ccc(C)c(C)c2)CC1	16	.	0	-2%	1.4
CC1=C(C)CC(C(=O)c2ccc(C)cc2)C(C(=O)O)C1 (stereo not drawn)	8	-15	-5	-4%	0.0
CN(C)CCNC(=O)CNC(=S)N(CCCN1CCOCC1)Cc1cccs1	9	.	14	0%	-0.1
Cc1ccc(C(=O)c2c(NC(=O)c3ccccc3C)sc(C)c2C)cc1	3	-26	17	2%	8.8

Copied from the results shown (5 entries):
SMILES	Arbovirus inh	YopH PTP inh	Mtb betalactam	Mtb H37Rv	RecA splice inh	others
COc1cc(NCCC(=O)c2cccs2)c(OC)cc1Cl	-3	.	98	?	3.1
CCOc1ccc(-c2noc(-c3cccnc3)n2)cc1OC	3	-38	25	.	2.1
CC(C)C(=O)Nc1nnc(SCC(=O)NC2CC2)s1	5	-27	5	-12%	.
O=C(CCc1ccccc1)Nc1cccnc1	.	.	6	.	-3.7
COc1ccc(-c2cc(C(=O)N(C)Cc3ccccc3)c3ccccc3n2)cc1	.	.	61	.	12

Random excerpt: two compounds from above.
SMILES	Arbovirus inh	YopH PTP inh	Mtb betalactam	Mtb H37Rv	RecA splice inh	others
CC1=C(C)CC(C(=O)c2ccc(C)cc2)C(C(=O)O)C1 (stereo not drawn)	8	-15	-5	-4%	0.0
CCOC(=O)/C(C#N)=C(\O)c1ccc(NC(=O)c2ccc([N+](=O)[O-])cc2)cc1	.	.	99	5%	-1.1

Next section:
SMILES	Arbovirus inh	YopH PTP inh	Mtb betalactam	Mtb H37Rv	RecA splice inh	others
CC1=C(C(=O)Nc2ccccn2)C(c2ccc(N(C)C)cc2)n2ncnc2N1 (stereo not drawn)	4	2	-4	-8%	2.8
CCn1cc[n+](C)c1P(c1ccccc1)c1ccccc1	-8	-26	0	8%	0.0
CC(C)c1ccc(C(C(=O)NC2CCCC2)N(C(=O)CNC(=O)c2ccco2)c2cccnc2)cc1 (stereo not drawn)	-4	-62	-3	-1%	0.5
COC(=O)c1ccc(-c2nc3cc(N)ccc3o2)cc1	-28	-17	22	-6%	-2.2
CCOc1ccc(-n2c(N)c(-c3nc4ccccc4n3C)c3nc4ccccc4nc32)cc1	2	-22	92	70%	-2.9
Cc1ccc(Nc2nnc(SCc3cc(=O)n4cc(C)ccc4n3)s2)cc1	-1	-22	-3	-6%	2.2
CSc1nc2ccccc2c(=O)n1N	3	-13	8	1%	-5.4	Arbovirus inh repeat=-1
Cc1cc(=O)oc2c(C)c(OCC(=O)NCCN3CCOCC3)ccc12	.	.	-1	.	-0.3
Cc1onc(C(=O)N2CCC(C(N)=O)CC2)c1-c1ccccc1Cl	8	-20	-2	.	2.2
COc1ccc(OC)c(NC(=O)c2cc(-c3c(C)cc(C)cc3O)n[nH]2)c1	.	.	4	.	-0.5
NC1=NN=C(N2N=C(c3ccco3)CC2(O)C(F)(F)F)n2ncnc2C1 (stereo not drawn)	9	.	0	2%	-5.0
COC(=O)c1sc(-c2ccc(Cl)cc2)cc1NC(=O)COCC(=O)O	.	.	.	-1%	1.1
CC1CCCCC1NC(=O)C1CCN(C(=O)NC2CCCCC2)CC1 (stereo not drawn)	3	-16	0	0%	4.5
Cc1[nH]c(=O)[nH]c(=O)c1CSCC(=O)OCC(=O)c1ccc(Br)cc1	3	.	-2	0%	1.9
O=C(CNCCN1CCOCC1)Nc1ccccc1Sc1ccccc1	3	-12	-15	-3%	-0.6
OC1CCCN(Cc2ccccc2)C1 (stereo not drawn)	25	-14	-5	-1%	.
CNNC(=S)Nc1ccc(Cl)cc1	.	.	-6	-5%	3.2
COc1ccccc1N1CCN(C(=O)c2cc3cc(Cl)ccc3[nH]2)CC1	.	.	3	.	-0.7
Cc1ccnc(NS(=O)(=O)c2ccc(NC(=O)C3C4C=CC(C4)C3C(=O)O)cc2)n1 (stereo not drawn)	-4	.	1	-2%	-3.5
c1ccc(-c2csc3ncnc(NCCCN4CCOCC4)c23)cc1	43*	51*	-1	-1%	-0.9
CCC(C)C1=CC(=Nc2c(C)n(C)n(-c3ccccc3)c2=O)C=C(C(C)CC)C1=O (stereo not drawn)	-7	.	1	10%	-7.7
COc1ccc(C(C(=O)NCC2CCCO2)N(C(=O)CNC(=O)c2cccs2)c2ccc(C(C)=O)cc2)cc1OC (stereo not drawn)	2	.	1	4%	3.7
Cc1cc(C)cc(Oc2ccc(-c3nnc(-c4ccccc4)o3)cc2[N+](=O)[O-])c1	-3	-24	-3	-8%	0.7
CCCCN(C)S(=O)(=O)c1cc(Br)cc2c1N(C(=O)C1CC1)CC2	-12	-36	0	-9%	0.3
CC(/C=C/c1ccccc1)=N\NC(=O)c1ccncc1	1	-35	99	?	1.2
Fc1cccc(-n2ncc(-c3nnnn3-c3ccccc3)c2C(F)(F)F)c1	-12	-30	1	-7%	5.6
Cc1cc(C)nc(SCC(=O)N/N=C\c2sccc2C)n1	-2	-14	-16	-5%	0.5
COc1cccc(C(=O)Nc2ccc3[nH]ncc3c2)c1	.	.	4	.	7.5
Cc1cc(N2CCN(C)CC2)ccc1NC(=O)c1ccc(-c2ccc(Cl)cc2)o1	.	.	98	.	6.5
O=C(CN1CCN(S(=O)(=O)N2CCOCC2)CC1)Nc1cc(Cl)ccc1Cl	.	.	2	.	1.0
COCCCN1CN(S(=O)(=O)c2ccc(C)cc2C)c2nc3ccccc3nc21	.	.	19	.	0.0
NC(=S)Nc1cccc2cn[nH]c12	7	.	3	2%	-1.1
CN(C)CCSc1nc(-c2ccccc2)nc2c1COC(C)(C)C2	-1	18	-6	8%	-0.2
O=C(CNC(=O)c1ccc(S(=O)(=O)N2CCCC2)cc1)N/N=C/c1ccc(Cl)cc1Cl	0	13	5	-3%	2.9
COCCCNC(=S)NC1CCCCC1	-4	-18	-9	3%	-0.2
CC(=O)c1cccc(CN2CCN(CCc3ccccc3)C(CCO)C2)c1 (stereo not drawn)	-6	.	0	5%	-1.9
O=C1CNC(=O)N1CC(=O)N1CCCc2ccccc21	6	-14	-17	-8%	-0.2
O=C(NC(=S)Nc1cccc2ncccc12)c1ccco1	3	.	-1	-7%	7.9
CCSCCOC(=O)C1=C(C)NC(=O)NC1c1ccccc1 (stereo not drawn)	2	-35	-2	3%	0.4	Arbovirus inh repeat=-5
COc1ccc(NC(=O)C2CCN(Cc3cnn(-c4ccccc4)c3-n3cccc3)CC2)cc1OC	-17	2	4	4%	3.3
O=C1CCC(C(=O)Nc2ccc(Cl)cc2)N1 (stereo not drawn)	.	.	2	.	-3.9
Cc1nn(-c2ccccc2)nc1CNS(C)(=O)=O	.	.	0	-17%	0.1
Cc1ccccc1-c1nc2c3ccccc3nc(=S)n2[nH]1	.	.	6	.	-0.2
CCN(CC(=O)Nc1ccccc1C(F)(F)F)C(=O)CSCc1c(C)noc1C	.	.	-5	.	6.9
CCOCCN1CCN(C2c3ccccc3CSc3ccccc32)CC1 (stereo not drawn)	.	.	-11	.	3.3
CC(C)CC(O)(c1ccccc1)C(CN1CCOCC1)c1ccccc1 (stereo not drawn)	.	.	?	.	0.5
O=C(Cn1nc(-c2ccccc2)nc1-c1ccccc1)OC1CCCCC1	3	0	96	66%	14
CCNC(=S)NCc1ccc(OC)c(OC)c1	-2	.	-6	3%	3.8
CC1Sc2ccc(S(=O)(=O)CCC(=O)N3CCCC3)cc2NC1=O (stereo not drawn)	.	.	-6	.	-2.8
COc1ccc2c(=O)c(C(=O)O)c(-c3ccc4c(c3)OCO4)n(C)c2c1	4	-26	3	-13%	-0.2
Cc1csc(NC(=O)c2ccc(C)c([N+](=O)[O-])c2)n1	-12	-9	-6	4%	-0.5
Cc1ccc(C(NC(=O)Nc2ccccn2)C(Cl)(Cl)Cl)cc1F (stereo not drawn)	.	.	-2	.	-0.2
